VACV mCherry inh = qHTS for Stage-Specific Inhibitors of Vaccinia Orthopoxvirus: mCherry Reporter Primary qHTS; Vaccinia virus mCherry reporter infection, fluorescence; about a quarter of the inactives have no number; Potency, µM (series often up to 36.5 µM), for inactives: at the highest dose activity change, negative = inhibition, most hits filed as inhibitors; 310,000 tested, 0.63% active; AID 720579, 2013; active = well fitted inhibition curve with a large enough effect; inconclusive = small, poorly fitted or top-dose-only effect; inactive = no such curve, though single readings can be large or run the other way; tested in A549 cells; also: nearly all actives have a fitted effect of over 35% in size; inactives centre near -10
VACV Venus inh = qHTS for Stage-Specific Inhibitors of Vaccinia Orthopoxvirus: Venus Reporter Primary qHTS. Vaccinia virus Venus reporter expression, fluorescence. Potency, µM (doses to about 36.5 µM), for the others: at the top dose activity change, negative = inhibition, hits mostly inhibitors. 330,000 tested, 0.46% active; active means well fitted inhibition curve with a large enough effect; inconclusive means small, poorly fitted or top-dose-only effect; inactive means no such curve, though single readings can be large or run the other way; tested in A549 cells; also: nearly all actives have a fitted effect of over 30% in size; inactives centre near -10
The depositor's hits bear a star; i = inactive; u = inconclusive; x = not tested or not shown; & = joins results of further samples; [ ] = dose if it differs, or a comment. % is scaled to controls: 0 for no effect and ±100 for the full control effect; potency is read from the fitted curve at half-maximal effect.

SMILES	VACV mCherry inh	VACV Venus inh
CCOC(O)[C@H]1N[C@@H](c2ccc(Cl)cc2)[C@@H]([N+](=O)[O-])[C@@H]1c1ccccc1 (some centres not stated)	-14%	-11%
O=C(c1ccc(S(=O)(=O)N2CCCCC2)cc1)N1CCc2ccccc2C1	-19%	-23%
CCOC(=O)N1CCN(C(=O)C[C@@H]2C[C@@]3(C(=O)OC)CC(C)(C)CC=C3N(CCc3ccc(OC)c(OC)c3)C2=O)CC1	-9%	6%
CCS(=O)(=O)c1nc(S(=O)(=O)c2ccc(Cl)cc2)c(N2CCN(C)CC2)s1	-2%[7.34 µM]	-8%[7.34 µM]
CN(C)/C=N/C(=S)Nc1ccc(Cl)cc1	-20%	-10%
CCN(CC)C(=O)c1sc2c(c1C)c(=O)n(-c1ccc(C)c(C)c1)c(=O)n2Cc1cc(=O)n2ccccc2n1	-3%	-7%
CC(=O)c1ccc(F)c(-c2cc(C)cc3c2OC(CNC(=O)c2cccnc2)C3)c1 (configuration not stated)	-14%	-14%
O=C(Nc1ccc(N2CCOCC2)cc1N1CCOCC1)c1cccc([N+](=O)[O-])c1	i	-4%
CCN(CC)S(=O)(=O)c1ccc(N2CCOCC2)c(NC(=O)c2cccc3ccccc23)c1	-15%	-15%
O=C(N[C@@H](Cc1c[nH]c2ccccc12)C(=O)O)C1CCN(S(=O)(=O)c2ccc(Cl)cc2)CC1	-4%	3%
O=C(NCC1OCCc2ccccc21)c1ccc(NC(=O)c2ccccc2Cl)cc1 (configuration not stated)	-13%	-18%
O=C(NC(=S)NC1C2CC3CC(C2)CC1C3)c1ccccc1 (configuration not stated)	i	-6%
C[C@H]1CCC/C=C/[C@@H]2C[C@H](O)C[C@H]2[C@H](O)[C@H](S(=O)c2ccc(O)cc2)CC(=O)O1 (some centres not stated)	u	u
O=C(COc1cc(Cl)ccc1Cl)N1CCNC1=O	-15%	-2%
O=C(NCCn1cc(SCc2ccc(F)cc2)c2ccccc21)c1cccs1	-18%	-17%
CCN(C(=O)CN1C(=O)NC2(CCC(C)CC2)C1=O)C1CCCCC1 (configuration not stated)	-16%	-12%
COc1ccccc1CNc1ccnc(-c2ccccc2C(F)(F)F)n1	-19%	-13%
COCCn1c(=NC(=O)c2ccc3c(c2)OCCO3)sc2cc(C(=O)OC)ccc21	-18%	-16%
C#CCNc1c2c(nc3ncnn13)CC(C)CC2 (configuration not stated)	-6%	-16%
O=C(c1cccs1)N1CCCC(c2nc3c(nnn3Cc3cccc(Cl)c3)c(=O)[nH]2)C1 (configuration not stated)	-23%	6%
Cc1[nH]n(C(N)=S)c(=O)c1N=Nc1ccc(S(=O)(=O)N2CCCC2)cc1	-11%	4%
O=C(N/C(=C/c1ccc(Cl)cc1)C(=O)N1CCOCC1)c1ccccc1	i	-11%
O=C(CNc1ccccc1)Nc1ccc(F)cc1	-13%	-7%
CN(C)/N=C/c1ccc(/C=N/NC(N)=S)o1	-5%	-13%

Filtered by structure, the compounds so far containing a thiophene ring, fused or not.
SMILES	VACV mCherry inh	VACV Venus inh
CCN(CC)C(=O)c1sc2c(c1C)c(=O)n(-c1ccc(C)c(C)c1)c(=O)n2Cc1cc(=O)n2ccccc2n1	-3%	-7%
O=C(NCCn1cc(SCc2ccc(F)cc2)c2ccccc21)c1cccs1	-18%	-17%
O=C(c1cccs1)N1CCCC(c2nc3c(nnn3Cc3cccc(Cl)c3)c(=O)[nH]2)C1 (configuration not stated)	-23%	6%

Carrying on.
SMILES	VACV mCherry inh	VACV Venus inh
CCOC(=O)c1sc(NC(=O)C(CC)OC(=O)c2ccco2)nc1C (configuration not stated)	-30%	-16%
COc1ccccc1C1C(C#N)=C(N)N(N(C)C)C2=C1C(=O)CC(C)(C)C2 (configuration not stated)	i	-16%
CCOc1ccc(Cn2c(CNS(=O)(=O)c3ccc([N+](=O)[O-])cc3)nc3cccnc32)cc1	-19%	-8%
Cc1coc2c(C)c3oc(=O)c(CCC(=O)NCCc4ccccc4)c(C)c3cc12	u	u
O=C(c1ccccc1F)N(Cc1cccs1)C1CCS(=O)(=O)C1 (configuration not stated)	-10%	-9%
Cc1ccc(N(CC(=O)NC(C)(C)C)C(=O)CNC(=O)c2cccs2)cc1C	i	-5%
O=C(NCc1ccccn1)c1c(-c2ccccc2)sc2ccccc12	u	-27%
CCOC(=O)c1cc(C)sc1/N=C/C1C(=O)CC(C)(C)CC1=O	-8%	-7%
CN(C(=O)/C=C/c1ccccc1)C1CCS(=O)(=O)C1 (configuration not stated)	-16%	-13%
CN1CCN(c2nc3ccccn3c(=O)c2C=C(C#N)C#N)CC1	-19%	-9%
COc1cc(NC(=O)COc2cccc(OC)c2)cc(OC)c1	21%	0%
COC(=O)c1cc2occc2n1CC(=O)Nc1ccc(N(C)C)cc1	-12%	-6%
COc1ccc(C(=O)NCc2nnc(SCC(=O)NC3CCCCC3)n2C)cc1	-18%	-6%
Cc1ccc(S(=O)(=O)Nc2ccccc2N=Cc2ccc([N+](=O)[O-])cc2[N+](=O)[O-])cc1	i	-21%
COc1ccc2cc(C#N)c(N3CCN(Cc4nnnn4CCC(C)C)CC3)nc2c1	-22%	-18%
Cc1ccc(NC(=O)c2ccc(OC(=O)COc3ccc(Cl)c(C)c3)cc2)cc1	-15%	-9%
Cc1ccc(Cc2nc3ccccc3nc2SCC(=O)N2CCCc3ccccc32)cc1	-4%	-6%
CC1CN(CC(=O)Nc2ccccc2Sc2ccccc2)CC(C)O1 (configuration not stated)	i	-14%
Cc1ccc(N2CC(C(=O)Nc3ccc(S(=O)(=O)NCC4CCCO4)cc3)CC2=O)cc1 (configuration not stated)	-20%	-28%
Cc1cccc(-n2nc3c(c2NC(=O)c2cc4ccccc4o2)CS(=O)(=O)C3)c1	-14%	-11%
COc1cc(OC)c(C2=NOC(C(=O)NCc3ccc4c(c3)OCO4)C2)cc1Cl (configuration not stated)	-18%	-29%
CC(C)OC(=O)CSc1nc2ccccc2s1	-16%	-10%
COc1ccc(CCC(=O)NCCc2ccc(OC)c(OC)c2)cc1	-3%	-17%
CCOC(=O)Cn1nc(C)c(NC(=O)COc2ccc([N+](=O)[O-])c(C)c2)c1C	-13%	-17%
CC1(C(=O)NS(=O)(=O)c2cccc(OC(F)F)c2)CCN1C(=O)Cc1ccsc1 (configuration not stated)	-2%	5%
CC(C)Oc1ccc(C(=O)N2CCC(c3nc4ccccc4s3)CC2)cc1	-17%	-3%
CCCOc1ccccc1C1CC(=O)Nc2cc3c(cc21)OCO3 (configuration not stated)	x	u
CCN1CCN(CCCNC(=O)c2cc3c(s2)-c2ccccc2OC3)CC1	-14%	0%[7.34 µM]
Cc1ccc2oc(-c3ccccc3)nc2c1	-8%	-11%
CCN1C(=S)N[C@@H](CCc2ccccc2)[C@H](C(=O)OC)[C@H]1C	-13%	3%
COCCNC(=O)C1CC(c2cccc(OC)c2)=NO1 (configuration not stated)	-17%	-3%
CCOC(=O)c1ccc(NC(=O)COc2coc(CN3CCc4ccccc43)cc2=O)cc1	i	-14%
COc1cc2c(cc1CN1CCN(C(=O)c3cc(OC)c(OC)c(OC)c3)CC1)OCO2	-3%	-16%
COC(=O)[C@]1(C)N[C@H](CN(C)C(=O)Nc2ccccc2)[C@@H]2C(=O)N(Cc3ccccc3)C(=O)[C@@H]21	i	-14%
COc1ccc(Cl)cc1NC(=S)NNC(=O)c1cccnc1	2%	6%
C=CCn1c(C)cc(/C([O-])=C(/C(=S)Nc2ccc(OC(F)F)cc2)[n+]2ccc(N(C)C)cc2)c1C	6%	-1%
CN1CCN(C(=O)/C(=C/c2cccs2)NC(=O)c2cccs2)CC1	i	-6%
Cn1cc(/C=C/C(=O)N2CCCC(C(=O)c3ccc(C(F)(F)F)cc3)C2)cn1 (configuration not stated)	i	-2%
Cc1ccc(COC(=O)CN2C(=O)NC3(CCCCC3C)C2=O)cc1 (configuration not stated)	-25%	-13%
COc1ccc(CC(=O)N2CCC3(CC2)NCCc2[nH]cnc23)cc1	i	-2%
COc1ccc(CN2CCN(C(=O)c3ccccc3C(=O)c3ccccc3)CC2)cc1OC	-21%	-11%
COc1ccc2c(c1)O[C@@]1(CCCC[C@@H]1C)CC2=O	-2%	-7%
COC(=O)c1ccc(C(=O)OC)c(NC(=O)COC(=O)CCOc2ccc(C)cc2)c1	-4%	-18%
CC1(C)OC(=O)C(=Cc2ccc(-c3ccc(Cl)c(C(=O)O)c3)o2)C(=O)O1	-7%	-5%
Cn1cccc1Cc1nnc(SCC(=O)Nc2ccccc2F)n1-c1ccc(F)cc1	-8%	-8%
O=C(OCc1nc2ccc(Cl)cc2n1CCO)c1ccccc1C(=O)c1ccccc1	-9%	-8%
O=C(Nc1ccccc1OC(F)F)c1ccc(F)cc1	-20%	-8%
CCCC(C)C(=O)Nc1nc(C)c(-c2csc(Nc3cc(Cl)ccc3C)n2)s1 (configuration not stated)	-6%	-13%
Clc1cnc(N/N=C/c2ccco2)c(Cl)c1	-14%	-9%
O=C(NCc1ccccc1)N1CCN(c2ccc(Cl)c(Cl)c2)CC1	-13%	-14%
O=C(Nc1cc(C(=O)N2CCOCC2)cc(C(=O)N2CCOCC2)c1)c1cc(F)c(F)cc1Cl	-13%	-14%
Cc1ccc(-n2c(=O)c3c4c(sc3n(CC(=O)Nc3cccc(Cl)c3)c2=O)CCCCC4)cc1C	-9%	-8%
CC1OC(OC2C=C3CCC4C(CCC5(C)C(c6ccc(=O)oc6)CCC45O)C3(C)CC2)C(O)C(OC2OC(CO)C(O)C(O)C2O)C1O (configuration not stated)	0.28µM*	0.0032µM*
CCN(C(=O)CSc1nnc(-c2cccs2)o1)C1CCS(=O)(=O)C1 (configuration not stated)	-21%	-2%
COc1ccc(NC(=O)CCCn2c(=O)c3sccc3n(Cc3ccc(C)cc3C)c2=O)cc1	-14%	-11%
COc1ccc(OC)c(C2C3=C(N=c4s/c(=C\c5cccc(O)c5)c(=O)n42)c2ccccc2CC3)c1 (configuration not stated)	-16%	-25%
CCOC(=O)c1c(NC(=O)CSc2nnc(CNc3ccc(OC)cc3)n2C)sc(C)c1C	u	-21%
Cc1nc([N+](=O)[O-])cn1CC(=O)Nc1ccc([N+](=O)[O-])cc1	i	-2%
CC(=O)N/C(=N/c1nc(C)cc(C)n1)Nc1cc(C)cc(C)c1	-3%	-5%
O=C(Nc1ccc(N2CCOCC2)cc1)c1cc(-n2cnnc2)ccc1Cl	-2%	-9%
Continued:
SMILES	VACV mCherry inh	VACV Venus inh
Cc1ccc(CCNC(=O)C2CCN(S(=O)(=O)c3cccc4nonc34)CC2)cc1	-15%	-21%
COc1ccc(C(=O)O/N=C(\N)Cc2ccc([N+](=O)[O-])cc2)c(OC)c1	-6%[7.34 µM]	-4%[7.34 µM]
O=C(COc1cccnc1[N+](=O)[O-])c1ccc(Cl)s1	-19%	16%
COc1ccc(CCn2c(O)c(C=NCCCO)c(=O)[nH]c2=O)cc1OC	x	-8%
CC(C)(C)C(=O)OCOC(=O)[C@@H]1N2C(=O)[C@@H](N=CN3CCCCCC3)[C@H]2SC1(C)C	-3%	-21%
O=C(Nc1ccccc1)Nc1nnc([C@@H]2C[C@H](O)[C@@H](CO)O2)s1	3%	9%
COc1cc(C2Nc3ccccc3C(=O)N2Cc2ccco2)cc(OC)c1OC (configuration not stated)	-8%	-16%
Cn1ncc(C(=O)N2CCN(c3ccc(F)cc3)CC2)c1C1CCN(C(=O)OC(C)(C)C)CC1	-10%	-8%
CCOc1ccc(CCNC(=O)c2cn(-c3cccc(OC)c3)c(=O)c3ccccc23)cc1	-17%	-12%
O=C(CNC(=O)c1cccnc1)N/N=C/c1ccc(O)cc1O	-27%	-5%
CC1=C(C(=O)OCC2CCCO2)C(c2ccccc2)NC(=O)N1 (configuration not stated)	-6%	-13%
[O-]/[N+](=C\c1ccc(F)cc1)c1ccccc1	-4%	9%
Cc1ccc(S(=O)(=O)N2CCOCC2)cc1NCC(=O)Nc1ccc(OC(F)(F)F)cc1	i	-1%
CCCn1c2ccccc2c2cnn(CC(=O)NCCN(CC)CC)c(=O)c21	-4%	-28%&-14%
O=C(CSCc1ccccc1)Nc1ccc2c(c1)C(=O)NC2=O	-2%	-11%
O=C(NCc1nnc(SCC(=O)N2CCC(Cc3ccccc3)CC2)o1)c1ccco1	-2%	-5%
O=C1CCC[C@@H]2C[C@@]3(C[C@@H]4CCN1[C@H]24)Nc1cc([N+](=O)[O-])ccc1NC3=NC1CCCCC1	u	-24%&-8%
O=C(NC1CCCCC1)C(c1cccnc1)N(C(=O)CCl)c1ccccc1Cl (configuration not stated)	u	10µM*
O=c1c2oc3ccccc3c2n(Cc2ccc(F)cc2)c(=O)n1Cc1ccco1	-16%	-15%
CC1(C)OC(=O)C(=Cc2ccc[nH]2)C(=O)O1	0%	15%

Random excerpt: 7 entries already listed, in no set order.
SMILES	VACV mCherry inh	VACV Venus inh
Cc1ccc(S(=O)(=O)N2CCOCC2)cc1NCC(=O)Nc1ccc(OC(F)(F)F)cc1	i	-1%
O=c1c2oc3ccccc3c2n(Cc2ccc(F)cc2)c(=O)n1Cc1ccco1	-16%	-15%
O=C1CCC[C@@H]2C[C@@]3(C[C@@H]4CCN1[C@H]24)Nc1cc([N+](=O)[O-])ccc1NC3=NC1CCCCC1	u	-24%&-8%
CCCn1c2ccccc2c2cnn(CC(=O)NCCN(CC)CC)c(=O)c21	-4%	-28%&-14%
CC1(C)OC(=O)C(=Cc2ccc[nH]2)C(=O)O1	0%	15%
O=C(CSCc1ccccc1)Nc1ccc2c(c1)C(=O)NC2=O	-2%	-11%
O=C(NCc1nnc(SCC(=O)N2CCC(Cc3ccccc3)CC2)o1)c1ccco1	-2%	-5%

High-throughput results: PubChem BioAssay, National Center for Advancing Translational Sciences (NCATS)
